From PubChem
miR-21 reporter = qHTS Assay for Modulators of miRNAs and/orActivators of miR-21; Potency, µM (top dose mostly 38.3 µM), for the others: top-dose reporter change, positive = more light; 340,000 tested, under 10 active; HeLa miR-21 FLuc reporter, luciferase, 48 h; active = well fitted rising curve with a large enough effect; inconclusive = small, poorly fitted or top-dose-only effect; inactive = no such curve, though single readings can be large or run the other way;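 note: % of control where 0% means no effect; miR-21 action dims this reporter so a rising signal means less miR-21 action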
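HeLa cells endogenously expressing miR-21, stably carrying CMV-driven firefly luciferase with a downstream miR-21 binding site, 2000 cells/well. Titrations up to approximately 40 uM, 48 hours; luciferase luminescence read.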
* = called active by the depositor; ? = inconclusive; [ ] = dose if it differs, or a comment. Only part of the results is shown, so the mix of outcomes need not match the whole.

SMILES	miR-21 reporter
O=C(NCCC1=CCCCC1)c1ccc2c(c1)N(Cc1cccc(Cl)c1)C(=O)c1ccccc1S2(=O)=O	-1%
CCc1ccc(NC(=O)CSc2nccn2-c2cccc(C)c2C)cc1	-11%
CC(=O)Nc1cccc(NC(=O)CSc2cn(CC(=O)N3CCCCCC3)c3ccccc23)c1	6%
O=C(NCCCN1CCN(c2ccccc2)CC1)c1sc2ncccc2c1-n1cccc1	-1%
COc1c(Cl)cc(Cl)cc1C(=O)Nc1cccc2cccnc12	-10%
Cc1ccc(NC(=O)Nc2c(C)n(C)n(-c3ccccc3)c2=O)c(Cl)c1	3%
CCOc1cc2[nH]c(=O)n(CCCCCC(=O)NC(C)CC)c(=O)c2cc1OCC (centres undefined)	-1%
CCCCSCCCNC(=O)C1CCN(Cc2nc(-c3ccc(CC)cc3)oc2C)CC1	0%
COc1cccc(Cn2c(CNC(=O)C(C)C)nc3cccnc32)c1	-2%
Cc1oc2ccc(O)c(CN(C)Cc3ccccc3)c2c1C(=O)Nc1cccc(Cl)c1C	29%
O=C(Nc1ccc(NC(=O)c2cc3ccccc3o2)cc1)c1ccccc1	-20%
CC(=O)OC1=CN(Cc2ccccc2)S(=O)(=O)c2ccccc21	26%
Cc1c(Cl)cccc1NC(=O)CSc1nc(=O)[nH]c2c1CCCC2	1%
O=C(Cn1ccc2cc(S(=O)(=O)N3CCCCCC3)ccc21)NCc1ccccc1Cl	18%
Cn1cnc2c(=O)oc3ccc(S(=O)(=O)N4CCN(c5ccccc5F)CC4)cc3c21	5%
CN(C(=O)CSc1nc2ccccc2n1CC(=O)N(C)C1CCCCC1)c1ccc(F)cc1	-2%
CCOC(=O)c1ccc(NC(=O)c2nc(SCc3ccc(F)cc3)ncc2Cl)cc1	29%
Cc1ccc(-c2cc(C(=O)Oc3ccccc3)c3cccc(C)c3n2)cc1	2%
COc1ccc(-n2ccnc(NCc3ccccc3Cl)c2=O)cc1OC	-6%
Cc1ccc(CNC(=O)Nc2cc(C(=O)NCc3ccc(C(C)C)cc3)ccc2N2CCCC2)cc1	-3%
CCOC(=O)c1ccc(NC(=O)CCCc2nc(-c3ccccc3Cl)no2)cc1	1%
CC(C)NC(=O)C1CCN(c2nc3ccccc3nc2C(F)(F)F)CC1	4%
Cc1ccc(-n2nc(C)c3c(C)cc(=O)n(CC(=O)Nc4ccc(C(C)C)cc4)c32)cc1	1%
Cc1cc(=O)[nH]c2nnc(SCCC(C)C)n12	-2%
O=C(CN1C(=O)c2cccnc2Oc2ccc(Cl)cc21)Nc1cccc(C(F)(F)F)c1	21%

Remaining list, next part.
SMILES	miR-21 reporter
CCCN(C(=O)c1c(C)oc2ncn(CC(C)C)c(=O)c12)c1ccccc1C	-4%
Cc1cc2c(c(=O)n1Cc1ccccc1)C1O[C@](c3ccsc3)(Cc3ccccc31)O2	-3%[7.66 µM]
CN1CCN(c2nc3c(S(=O)(=O)c4ccc(Br)cc4)nnn3c3ccsc23)CC1	-10%
Cc1ccc2occ(-c3cc(-c4ccc(F)cc4)nc4c3COc3ccc(F)cc3-4)c(=O)c2c1	-6%
O=C(Cn1c(=O)oc2ccccc21)Nc1ccc(C(=O)O)cc1	-4%
Cc1ccc(C)c(CN2CCCN(Cc3ccccc3C)S2(=O)=O)c1	0%
CCOCCc1nn2c(=O)cc(COC(=O)c3ccc(NC(=O)C(C)(C)C)cc3)nc2s1	12%
CCc1ccc(NS(=O)(=O)c2ccc3[nH]c4c(c3c2)CCCCCC4)cc1	5%
Cc1cccc(N2CCN(C(=O)c3ccc4c(c3)N(Cc3cccc(Cl)c3)C(=O)c3ccccc3S4=O)CC2)c1C (centres undefined)	10%
Cc1ccc(Cl)c2c1N[C@@H](c1ccc(C(=O)O)cc1)[C@H]1CC=C[C@@H]21	1%
Cc1cc(C)c2oc(-c3cccc(NC(=O)COc4ccc([N+](=O)[O-])cc4)c3)nc2c1	-12%
COc1ccc2c(c1)c1c(c(=O)n(Cc3ccccc3)c(=O)n1CC(=O)NCc1ccc(C)cc1)n2C	4%
CCOc1ccc(NC(=O)Cn2cc(C(=O)c3ccccc3)c(=O)c3cc4c(cc32)OCCO4)cc1	-3%
Cc1cc(C)n(C(C)CC(=O)Nc2cccc(C(F)(F)F)c2)n1 (centres undefined)	0%
CCOC(=O)C1(C)C=C(Nc2cccc(C)c2)C(=O)N1c1ccccc1 (centres undefined)	-8%
CC1=C(C(=O)OCC2CCCCC2)C(c2cccc(F)c2F)CC(=O)N1 (centres undefined)	0%
O=C(Nc1cccc(Cl)c1Cl)c1cc2nc(-c3ccc(Cl)cc3)cc(C(F)(F)F)n2n1	-1%
Cc1ccc(N(C)C(=O)Cn2ncc3c([nH]c4ccccc43)c2=O)cc1C	10%
Cc1c(C(=O)N2CCCC2)oc2c1-c1nn(CC(=O)NCc3ccccc3F)cc1CC2	3%
COc1ccc(NC(=O)c2c(NCc3sccc3C)sc3c2CCCCC3)c(OC)c1	2%
CCc1ccc(S(=O)(=O)NCc2cccn2Cc2cccc(C)c2)cc1	-7%
COc1ccccc1Nc1ncnc2c1nc1n2CCCC1	-48%
COc1ccc(-c2nc3sc(CCNC(=O)Cc4ccc(Cl)cc4)c(C)n3n2)cc1	-17%
CCOc1ccccc1NC(=O)c1nc(SC(C)C)ncc1Cl	6%
COc1ccc(Cn2ccc3nc(C)c(C(=O)Nc4ccc(C)c(F)c4)cc3c2=O)cc1	-4%

Carrying on.
SMILES	miR-21 reporter
CCCS(=O)(=O)N1CCC(C(=O)NCCOC)CC1	1%
COc1ccccc1NC(=O)c1c(C)cc(C)nc1SCC(=O)Nc1cccc(C)c1	15%
COCCCn1c(SCc2cccc(Cl)c2)nc2c(sc3ccccc32)c1=O	3%
COc1cccc(-c2nc(S(=O)(=O)c3ccccc3)c(N3CCC(C)CC3)o2)c1	0%
Cc1nn2c(C)c(C(=O)NCCc3ccccc3)cnc2c1-c1ccccc1	-10%
Cc1ccc(C)c(NC(=O)CN(C)S(=O)(=O)c2ccc3c(c2)CCC(=O)N3)c1	4%
Cc1ccc(C(=O)N2CCc3cc(CNS(=O)(=O)c4ccc(Cl)s4)ccc32)cc1	-10%
Cc1ccc(-n2c(SCc3ccccc3)nc3c([nH]c4ccccc43)c2=O)cc1	-3%
Cc1ccc(C)c(CN2C(=O)c3ccccc3S(=O)c3ccc(C(=O)N4CCOCC4)cc32)c1 (centres undefined)	10%
CCCCOc1ccc(CNC(=O)Cc2ccc(NC(=O)N3CCSc4ncccc43)cc2)cc1	?
Cc1cc(C)cc(NC(=O)Nc2cccs2)c1	-24%
COc1ccc2c(c1)C=C(C(=O)NCc1cc(Br)ccc1OC)CO2	4%
COc1ccc(Cn2c(C(=O)O)c(CNCc3ccco3)c3ccc(OC)cc32)cc1	10%
Cc1ccc2oc(C(=O)Nc3sc4c(c3C(=O)NCc3ccco3)CCC4)cc(=O)c2c1	8%
CCOC(=O)N1CCC(NC(=O)c2cnn(-c3cccc(Cl)c3C)c2C2CCN(C(=O)OC(C)(C)C)CC2)CC1	-10%
COc1ccc(C2C(=O)N(C3CCCCC3)CC(=O)N2CCc2ccc(OC)c(OC)c2)cc1 (centres undefined)	-10%
Cc1cccc(NC(=O)CSc2nc(-c3ccccc3)cc(=O)[nH]2)c1C	1%
CCCCN1C(=O)CN(C2CCCCCC2)C(=O)C1c1ccc(OC(C)C)c(OC)c1 (centres undefined)	-12%
Cn1c(=O)oc2cc(S(=O)(=O)CCC(=O)NCc3ccc(Cl)cc3)ccc21	1%
COc1ccc(OCC(=O)Nc2ccc3c(c2)nc(CCNC(=O)c2ccco2)n3C)cc1	-2%
CCOc1cc(-c2nnc(SCC(=O)NC3CCCCC3)nc2-c2ccc(OC)c(OCC)c2)ccc1OC	-7%
C=CCc1cccc2cc(-c3nc4ccc(C(=O)O)cc4[nH]3)c(=O)oc12	-53%
CC(=O)N1c2c(cc(Br)cc2S(=O)(=O)Nc2ccc(OC(F)(F)F)cc2)CC1C (centres undefined)	29%
CCOc1cc(C(=O)N2CCC(c3ccncc3)CC2)cc(OCC)c1OCC	0%
COc1ccc(CN2CCCN(CC(=O)Nc3ccc(Br)cc3F)S2(=O)=O)cc1	5%

The list continues:
SMILES	miR-21 reporter
CC(=O)c1ccc(NC(=O)c2cn3c4c(ccc(Cl)c4c2=O)OC(C)C3)cc1 (centres undefined)	-3%
O=S(=O)(c1ccc2nc(Nc3ccc(Br)cc3F)ccc2c1)N1CCCC1	0%
COCC(=O)NCc1nc2cccnc2n1Cc1ccc(F)cc1	0%
COc1ccc(N2CCN(C(=O)c3cc4c(=O)n(Cc5ccco5)ccc4nc3C)CC2)cc1	4%
COc1ccc(N2CCN(C(=O)c3cc4c(s3)-c3c(C)cccc3OC4)CC2)cc1	2%
Cc1ccc(Cn2cc(S(=O)(=O)c3ccccc3)c(=O)c3cc(F)c(N4CCOCC4)cc32)cc1	-9%
COc1ccc(S(=O)(=O)c2c(Nc3ccc(C)cc3)sc(C(=O)c3ccc4c(c3)OCO4)c2N)cc1	6%
CC1CCN(C(=O)Cn2c(=O)n(CCCCCC(=O)NCc3ccccc3Cl)c(=O)c3sccc32)CC1	-4%
CCCc1cc(=O)[nH]c(Nc2cccc(Cl)c2Cl)n1	0%
CCOC(=O)C1CCCN(S(=O)(=O)c2cc3c(cc2C)NC(=O)CO3)C1 (centres undefined)	-16%
CCCCOC(=O)/C(C#N)=C/c1ccc(-c2cccc(C(F)(F)F)c2)o1	-6%
O=C(Cn1cc(SCc2cccc(Cl)c2)c2ccccc21)N1CCCCCC1	?
O=C(CSc1nnc(-c2cccc(Cl)c2)o1)N1CCc2ccccc21	-2%
CCOC(=O)c1ccc(NC(=O)CC2C(=O)N(c3ccccc3)C(=O)N2Cc2ccc(C)cc2)cc1 (centres undefined)	14%
Cc1ccc(N2CC(NC(=O)c3ccc(S(=O)(=O)N4CCCC4)cc3)CC2=O)cc1 (centres undefined)	0%
CCOc1ccc(NC(=O)NCCCN2CCN(c3ccc(OC)cc3)CC2)cc1	-2%
Cc1ccccc1S(=O)Cc1ccc(C(=O)NCc2ccccc2Cl)o1 (centres undefined)	10%
Cc1ccc(NC(=O)C2CCCN(c3nnc(-n4c(C)ccc4C)s3)C2)cc1Cl (centres undefined)	9%
COc1ccc2c(Sc3ccc(C)cc3)c(C(=O)NC(C)c3ccccc3)[nH]c2c1 (centres undefined)	13%
CCn1nc(C)c2c(-c3ccccc3)cc(=O)n(C(C)C(=O)NCCc3ccccc3)c21 (centres undefined)	3%
CCn1cc2nc(SCc3ccc(F)cc3)n(Cc3ccc(Cl)cc3)c(=O)c2n1	2%
CC(=O)c1cc(-c2ccccc2)n(CCC(=O)Nc2cc(C)cc(C)c2)c1C	20%
CCc1noc(-c2ccc(N3CCCCC3C)c([N+](=O)[O-])c2)n1 (centres undefined)	-36%
Cc1ccc(N2CCN(C(=O)CCc3c(C)nc4c(c3C)c(=O)n(C)c(=O)n4C)CC2)c(C)c1	0%
O=C1CC(c2ccccc2)Sc2nc(-c3ccc(F)cc3)nn21 (centres undefined)	-3%

More compounds follow.
SMILES	miR-21 reporter
Cc1ccccc1OCC(=O)Nc1ccc2nc(SCC(=O)N3CCc4ccccc43)sc2c1	3%
CC(C)N(Cc1ccccc1)S(=O)(=O)c1ccc(-c2cc(C(F)(F)F)on2)s1	7%
Cc1ccc(Cl)cc1N1CCN(C(=O)c2cn(C3CCCCC3)c(=O)c3c2c2ccccc2n3C)CC1	2%
Cc1ccc(CN2C(=O)C3(c4ccccc42)N(c2ccc(C)c(Cl)c2)C(=O)CS3(=O)=O)cc1 (centres undefined)	5%
COc1ccc(NC(=O)c2sc3nc4c(cc3c2N)CN(Cc2ccccc2)CC4)cc1OC	-2%
Cc1ccc(NC(=O)CSc2nc(-c3ccc(F)cc3)nc3c2Cc2c(CO)cnc(C)c2O3)cc1C	3%
CCOC(=O)c1c(C)oc2ccc(N(C(=O)c3ccncc3)S(=O)(=O)c3ccc(Br)cc3)cc12	5%
Cc1ccc(-c2nnc(Nc3ccc(OCC(N)=O)cc3)c3ccccc23)cc1S(=O)(=O)N(C)C	?
Nc1c(-c2nc(-c3cccs3)no2)nnn1-c1cccc(F)c1	-63%
CCCCCn1c(=N)n(CC(O)COc2cccc(C)c2)c2ccccc21 (centres undefined)	?
O=C(c1ccc2c(c1)N(Cc1ccc(Cl)cc1)C(=O)c1ccccc1S2(=O)=O)N1CCN(Cc2ccccc2)CC1	28%

Among those listed so far, 14 contain a thiophene ring, fused or not:
SMILES	miR-21 reporter
O=C(NCCCN1CCN(c2ccccc2)CC1)c1sc2ncccc2c1-n1cccc1	-1%
Cc1cc2c(c(=O)n1Cc1ccccc1)C1O[C@](c3ccsc3)(Cc3ccccc31)O2	-3%[7.66 µM]
CN1CCN(c2nc3c(S(=O)(=O)c4ccc(Br)cc4)nnn3c3ccsc23)CC1	-10%
COc1ccc(NC(=O)c2c(NCc3sccc3C)sc3c2CCCCC3)c(OC)c1	2%
COCCCn1c(SCc2cccc(Cl)c2)nc2c(sc3ccccc32)c1=O	3%
Cc1ccc(C(=O)N2CCc3cc(CNS(=O)(=O)c4ccc(Cl)s4)ccc32)cc1	-10%
Cc1cc(C)cc(NC(=O)Nc2cccs2)c1	-24%
Cc1ccc2oc(C(=O)Nc3sc4c(c3C(=O)NCc3ccco3)CCC4)cc(=O)c2c1	8%
COc1ccc(N2CCN(C(=O)c3cc4c(s3)-c3c(C)cccc3OC4)CC2)cc1	2%
COc1ccc(S(=O)(=O)c2c(Nc3ccc(C)cc3)sc(C(=O)c3ccc4c(c3)OCO4)c2N)cc1	6%
CC1CCN(C(=O)Cn2c(=O)n(CCCCCC(=O)NCc3ccccc3Cl)c(=O)c3sccc32)CC1	-4%
CC(C)N(Cc1ccccc1)S(=O)(=O)c1ccc(-c2cc(C(F)(F)F)on2)s1	7%
COc1ccc(NC(=O)c2sc3nc4c(cc3c2N)CN(Cc2ccccc2)CC4)cc1OC	-2%
Nc1c(-c2nc(-c3cccs3)no2)nnn1-c1cccc(F)c1	-63%
